Screens from PubChem.
SARS PLP yeast: inhibitors of SARS-CoV papain-like protease in yeast; S. cerevisiae expressing SARS-CoV PLpro, growth rescue; control for the full effect not named in the record; Potency, µM (highest dose often 32.9 µM), for the others: top-dose activity, positive = growth rescue; 330,000 tested, 0.19% active; AID 485353; active means well fitted rising curve with a large enough effect; inconclusive means small, poorly fitted or top-dose-only effect; inactive means no such curve, though single readings can be large or run the other way; further: 0% is about no effect; nearly all actives have a fitted effect of over 55% in size; growth read by luminescence after 48 h
StopGo reporter: lowers the luciferase signal of an FMDV 2A StopGo reporter | human cells with a luciferase reporter of 2A StopGo recoding; control for the full effect not named in the record | Potency, µM (doses to about 57.9 µM), for the others: at the highest dose signal change, negative = less light | 410,000 tested, 1.2% active; active = well fitted falling curve with a large enough effect; inconclusive = small, poorly fitted or top-dose-only effect; inactive = no such curve, though single readings can be large or run the other way; tested in HEK293T cells; further: on the % scale 0 is the no-effect control and ±100 the full control effect; nearly all actives have a fitted effect of over 45% in size; luciferase light after 4 h
RE007 growth inh: less growth of the S. pombe RE007 Vpr strain; S. pombe RE007 Vpr strain, BacTiter-Glo ATP luminescence, 24 h; control for the full effect not named in the record; Potency, µM (series often up to 92.2 µM), without a hit: at the top dose activity change, negative = less growth; 360,000 tested, 0.21% active; AID 651644; active = well fitted falling curve with a large enough effect; inconclusive = small, poorly fitted or top-dose-only effect; inactive = no such curve, though single readings can be large or run the other way;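 further: on the % scale 0 is the no-effect control and ±100 the full control effect; nearly all actives have a fitted effect of over 50% in size; the assay follows cell death caused by Vpr and the record does not say whether a fall means rescue or toxicity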
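Fission yeast strain RE007, carrying one chromosomally integrated HIV-1 vpr copy, was seeded at OD 0.01 in PMG+AL medium with 23 nL pinned compound. After 24 h at 30 °C and 99% humidity, viability was read by BacTiter-Glo luminescence.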
An asterisk follows results filed as active; ? = inconclusive; & = joins results of further samples; [ ] = dose if it differs, or a comment. Potency means the concentration at half of the fitted maximal effect. This is a subset; count on the stated rates, not on these rows.

A first look:
SMILES	SARS PLP yeast	StopGo reporter	RE007 growth inh
CC1(NC(=O)CSc2nnc(-c3c[nH]c4ccccc34)n2C2CC2)CCS(=O)(=O)C1 (stereo not given)	4%[6.58 µM]	3%	1%
O=C(COC(=O)COc1cccc(F)c1)Nc1nc2ccccc2s1	0%	19%	0%
O=C(CSc1nnnn1C1CC1)N1CCN(Cc2ccccc2F)CC1	-5%	-12%	6%
O=C(Cc1ccccc1F)N1CCN(S(=O)(=O)c2ccc(Cl)cc2)CC1	-3%	?	25%
COc1ccccc1N1CCN(C(=O)CSc2nnc(C)n2C2CC2)CC1	-1%	-19%	-4%
O=C(Nc1cc(C(F)(F)F)ccc1N1CCOCC1)c1ccncc1	1%	-6%	6%
C=CC[C@@H](CC(=O)OC(C)(C)C)C(=O)OC[C@@H]1CCCN1C(=O)[C@@H](CC=C)CC(=O)N(CCO)Cc1ccccc1	0%	-18%	-1%
CCOc1ccc(C=Nc2cccc3ncccc23)cc1	1%	-8%	0%
CC(=O)N1N=C(c2ccc(NS(=O)(=O)c3ccccc3)cc2)CC1c1ccco1 (stereo not given)	0%	-3%	-24%
COc1ccc(CNc2oc(-c3cccc4ccccc34)nc2P(=O)(OC)OC)cc1	-6%	-16%	9%
C[C@H](CO)N1C[C@H](C)[C@@H](CN(C)S(=O)(=O)c2cn(C)cn2)Oc2ccc(NS(=O)(=O)c3ccccc3)cc2C1=O	-7%	?	-8%
CCN(c1ccccc1)S(=O)(=O)c1ccc(NN)nc1	4%	-20%	2%
C[C@H](CO)N1C[C@H](C)[C@H](CN(C)C(=O)Nc2ccc(F)cc2)Oc2c(NC(=O)c3ccc(-c4nccs4)cc3)cccc2C1=O	0%	-17%	13%
CC(C)(C)OC(=O)C1=C(CO)CS[C@@H]2[C@H](NC(=O)Cc3ccccc3)C(=O)N12	2%	-21%	1%
O=C(O)CN1C(=O)C2C3CC(C2C1=O)C1C(c2ccc(Cl)cc2)c2sc(=O)[nH]c2SC31 (stereo not given)	0%	0%	-4%
Cc1ccc(S(=O)(=O)N2CCCCC2)cc1NC(=O)CCN1C(=O)C2CC=CCC2C1=O (stereo not given)	4%	-12%	4%
CCOC(=O)c1c(C)[nH]c(C(=O)OCC(=O)NCc2ccc(C)cc2)c1C	-11%	-4%	2%
Cc1ccc(S(=O)(=O)N(C)C[C@@H]2Oc3c(NS(C)(=O)=O)cccc3C(=O)N([C@H](C)CO)C[C@@H]2C)cc1	1%	3%	-14%
Oc1ccccc1-[n+]1c(-c2ccccc2)cc(-c2ccccc2)cc1-c1ccccc1	3%	28µM*	-24%
O=C(CN1C(=O)C2CCCCC2C1=O)Nc1ccc(OC(F)F)c(Cl)c1 (stereo not given)	5%	-11%	-3%

The list itself, from the first entry:
SMILES	SARS PLP yeast	StopGo reporter	RE007 growth inh
CC1(NC(=O)CSc2nnc(-c3c[nH]c4ccccc34)n2C2CC2)CCS(=O)(=O)C1 (stereo not given)	4%[6.58 µM]	3%	1%
O=C(COC(=O)COc1cccc(F)c1)Nc1nc2ccccc2s1	0%	19%	0%
O=C(CSc1nnnn1C1CC1)N1CCN(Cc2ccccc2F)CC1	-5%	-12%	6%
O=C(Cc1ccccc1F)N1CCN(S(=O)(=O)c2ccc(Cl)cc2)CC1	-3%	?	25%
COc1ccccc1N1CCN(C(=O)CSc2nnc(C)n2C2CC2)CC1	-1%	-19%	-4%
O=C(Nc1cc(C(F)(F)F)ccc1N1CCOCC1)c1ccncc1	1%	-6%	6%
C=CC[C@@H](CC(=O)OC(C)(C)C)C(=O)OC[C@@H]1CCCN1C(=O)[C@@H](CC=C)CC(=O)N(CCO)Cc1ccccc1	0%	-18%	-1%
CCOc1ccc(C=Nc2cccc3ncccc23)cc1	1%	-8%	0%
CC(=O)N1N=C(c2ccc(NS(=O)(=O)c3ccccc3)cc2)CC1c1ccco1 (stereo not given)	0%	-3%	-24%
COc1ccc(CNc2oc(-c3cccc4ccccc34)nc2P(=O)(OC)OC)cc1	-6%	-16%	9%
C[C@H](CO)N1C[C@H](C)[C@@H](CN(C)S(=O)(=O)c2cn(C)cn2)Oc2ccc(NS(=O)(=O)c3ccccc3)cc2C1=O	-7%	?	-8%
CCN(c1ccccc1)S(=O)(=O)c1ccc(NN)nc1	4%	-20%	2%
C[C@H](CO)N1C[C@H](C)[C@H](CN(C)C(=O)Nc2ccc(F)cc2)Oc2c(NC(=O)c3ccc(-c4nccs4)cc3)cccc2C1=O	0%	-17%	13%
CC(C)(C)OC(=O)C1=C(CO)CS[C@@H]2[C@H](NC(=O)Cc3ccccc3)C(=O)N12	2%	-21%	1%
O=C(O)CN1C(=O)C2C3CC(C2C1=O)C1C(c2ccc(Cl)cc2)c2sc(=O)[nH]c2SC31 (stereo not given)	0%	0%	-4%
Cc1ccc(S(=O)(=O)N2CCCCC2)cc1NC(=O)CCN1C(=O)C2CC=CCC2C1=O (stereo not given)	4%	-12%	4%
CCOC(=O)c1c(C)[nH]c(C(=O)OCC(=O)NCc2ccc(C)cc2)c1C	-11%	-4%	2%
Cc1ccc(S(=O)(=O)N(C)C[C@@H]2Oc3c(NS(C)(=O)=O)cccc3C(=O)N([C@H](C)CO)C[C@@H]2C)cc1	1%	3%	-14%
Oc1ccccc1-[n+]1c(-c2ccccc2)cc(-c2ccccc2)cc1-c1ccccc1	3%	28µM*	-24%
O=C(CN1C(=O)C2CCCCC2C1=O)Nc1ccc(OC(F)F)c(Cl)c1 (stereo not given)	5%	-11%	-3%
CC(=O)NS(=O)(=O)c1ccc(NC(=O)c2ccc(S(=O)(=O)N3CCCC3)cc2)cc1	-2%	-17%	-2%
C/C(=N\NC(=O)c1cc2c(s1)CCC(C)C2)c1ccc[nH]1 (stereo not given)	1%	52%[activator]	5%
C/C(=N\NS(=O)(=O)c1ccc(Br)cc1)c1ccc(-n2ccnc2)cc1	10%	118%[activator]	-1%
COC(=O)C1=C(c2ccc(F)cc2OCc2ccccc2)C[C@@H]2CC[C@H]1N2C(=O)NCc1ccc(C(C)(C)C)cc1	5%	-11%	7%
Cc1cc(C(=O)CCC(=O)N2CCN(c3ccccc3F)CC2)c(C)s1	-3%	-8%	-12%
N#CCOC(=O)c1cc(S(=O)(=O)N2CCCCC2)ccc1N1CCOCC1	-8%	-8%	-9%
C/C(=N\N1CCN(C)CC1)c1ccc(OC(F)F)cc1	1%	6%	5%
Cc1cc(C)n2nc(SCC(=O)NC(=O)c3ccc(OC(F)F)cc3)nc2n1	1%	-1%	1%
CCCCCCCC[n+]1cccc2c3ccccc3ccc21	-31%	?	5%
CC1CC(C)CN(S(=O)(=O)c2ccc(NC(=O)CCNC(=O)c3ccc([N+](=O)[O-])cc3)cc2)C1 (stereo not given)	5%	17%	1%
Cc1ccc(OCCNC(=O)C(C)SCC(=O)Nc2ccc(F)cc2)cc1 (stereo not given)	0%	-11%	-10%
CCOc1ccccc1NC(=S)NCCc1ccccc1	-2%	33%[activator]	-16%
CN(CC(=O)Nc1cccc(F)c1)C(=O)C1CCN(C(=O)c2ccc(Cl)cc2)CC1	1%	-10%	15%
O=C1COC(c2ccccc2)=CN1Cc1ccccc1	2%	-22%	2%
CCc1cccc(C)c1NC(=O)CSc1n[nH]c(N)n1	-1%	-4%	0%
CC1(C)CCC[C@@]2(C)CC=C(C(=O)O)[C@@H]3C[C@]312	-2%	0%	4%
CCc1ccc(N2CC(C(=O)OCC(=O)Nc3ccc(C(C)=O)cc3)CC2=O)cc1 (stereo not given)	3%	-6%	-7%
CC(=O)[C@H]1[C@H]([C@H](O)[C@H](O)CO)O[C@](O)(C(=O)O)C[C@@H]1O	6%	-9%	-5%
CCCN(CC1CC1)C(=O)COC(=O)c1oc2ccc(OCC)cc2c1C	2%	?	-16%
CC(C)NC(=O)NC(=O)COC(=O)c1cccc(OC(F)F)c1	-2%	-7%	2%
Cc1cc(C)cc(NC(=O)COC(=O)CCCC2=NS(=O)(=O)c3ccccc3N2)c1	1%	-6%	11%
O=C(CCCOC(=O)c1ccc(O)cc1O)c1ccccc1	-3%	8%	0%
COc1cccc(-c2ncc3ccccc3c2COC(=O)c2cccs2)c1	2%	-38%	20%
COc1cc2cc(CCO)oc(=O)c2cc1OC	0%	-8%	7%
O=C(c1ccc(F)c(S(=O)(=O)N2CCOCC2)c1)N1CCN(c2ccc(F)cc2)CC1	2%	-18%	-2%
COCCOc1ccc(C(F)(F)F)cc1NC(=O)COC(=O)Cc1c[nH]c2ccccc12	1%	-13%	1%
CC1CCc2c(sc(NC(=O)CCc3nc4ccccc4c(=O)[nH]3)c2C#N)C1 (stereo not given)	1%	1%	13%
COc1ccc(NS(=O)(=O)c2cc(NC(=O)c3cccs3)ccc2N2CCOCC2)cc1	-2%	85%[activator]	-8%
Cc1ccc(SSc2cc(C)ccc2N)c(N)c1	1%	14%	?
OC[C@H]1O[C@@H](n2cnc3c(NC4CCCC4)nc(Cl)nc32)[C@H](O)[C@@H]1O	1%	-15%&4%	14%[18.4 µM]
CC(C)(C)OC(=O)N1CCN(C(=O)c2[nH]cnc2C(=O)Nc2ccc(Cl)cc2)CC1	3%	-18%	10%
Cc1noc(C)c1NC(=O)Nc1ccc2c(c1)C(=O)N([C@H](C)CO)C[C@H](C)[C@@H](CN(C)S(=O)(=O)c1ccc(F)cc1)O2	1%	-20%	9%
CCc1cccc(CC)c1NC(=S)NCCc1ccc(O)c(O)c1	4%	-2%	-2%
CCN(c1ccccc1)S(=O)(=O)c1ccc(Cl)c(C(=O)N2CCCC2)c1	-6%	39%[activator]	-3%
Cc1ccsc1C(=O)OCC(=O)NCCc1ccccc1	-10%	85%[activator]	18%
COc1ccc2sc(-c3ccc(SC)cc3)c(C#CC(C)(C)O)c2c1	-3%	-10%	1%
NS(=O)(=O)c1ccc(NC(=O)COC(=O)c2ccc(Cl)nc2)cc1	1%	-7%	9%
CC1(C)CC(=O)C=C(c2cccc3c2Oc2ccccc2S3)C1	4%	-22%	1%
NC1(C#Cc2ccc3oc(=O)c(-n4cc(-c5ccsc5)nn4)cc3c2)CCCCC1	6%	-21%	-1%
O=C1N(c2ccc(Cl)cc2)C(c2cccnc2)N2CCCN12 (stereo not given)	-13%	29%	-3%

A few values from the results shown.
RE007 growth inh with CCc1cccc(C)c1NC(=O)CSc1n[nH]c(N)n1 : 0%
RE007 growth inh with C[C@H](CO)N1C[C@H](C)[C@@H](CN(C)S(=O)(=O)c2cn(C)cn2)Oc2ccc(NS(=O)(=O)c3ccccc3)cc2C1=O : -8%

More records
SMILES	SARS PLP yeast	StopGo reporter	RE007 growth inh
O=C1C=C(c2ccc(Cl)c(C(F)(F)F)c2)C[C@@H](c2ccc(Cl)cc2)C1	5%	-12%	-12%
Cn1cccc1Cc1nnc(SCC(=O)NCC2CCCO2)n1C (stereo not given)	3%	-3%	-2%
Cc1ccc(NC(=O)COC(=O)C2CC2)cc1S(=O)(=O)N1CCOCC1	1%	3%	-5%
N#Cc1ccccc1NC(=O)COC(=O)c1ccc2c(c1)OCO2	-11%	28%	-7%
CC(=O)c1cccc(NC(=O)COC(=O)c2ccc(S(C)(=O)=O)c([N+](=O)[O-])c2)c1	1%	?	-23%
COc1ccc(C(=O)OCC(=O)N2CCCCCC2)cc1S(=O)(=O)N1CCOCC1	0%	-13%	-12%
COC(=O)C1=C(c2cccc(C#N)c2)C[C@@H]2CC[C@H]1N2C(=O)N1CCC(O)CC1	-10%	34%[activator]	0%
CC1CCCCN1C(=O)COc1ccc(S(=O)(=O)N2CCCC2)cc1[N+](=O)[O-] (stereo not given)	-3%	-7%	-2%
COc1ccc(CCNC(=O)COC(=O)Cn2cnc3c2c(=O)n(C)c(=O)n3C)cc1	5%	-3%	-3%
COc1ccccc1C(=O)OCC(=O)Nc1ccc(Cl)cn1	-3%	19%	-21%
Cc1ccccc1NC(=O)COC(=O)c1c(-c2ccccc2)noc1C	-10%	0%	2%
CCCOc1ccc(C(F)(F)F)cc1NC(=O)C1CC(=O)N(Cc2ccco2)C1 (stereo not given)	1%	-9%	6%
Cc1cccc(C)c1NC(=O)CNC(=O)c1c(-c2ccccc2)noc1C	1%	-14%	13%
Cc1noc(C)c1S(=O)(=O)Nc1ccc2c(c1)C(=O)N([C@H](C)CO)C[C@H](C)[C@@H](CN(C)Cc1ccc(C(=O)O)cc1)O2	-2%	-4%	-6%
CC(C)(C)OC(=O)C[C@@H]1C/C=C\C[C@H](CC(=O)N(CCO)Cc2ccccc2)C(=O)N[C@H](Cc2ccccc2)COC1=O	-48%	-9%	9%
